hNpr1 antagonist = human Npr1 receptor antagonism; 76,000 compounds, 1.6% hits; P16066; HEK293 hNpr1 GloSensor cGMP, ANP-stimulated luminescence; Potency, µM (series often up to 46.3 µM), for inactives: top-dose activity change, negative = inhibition, hits mostly inhibitors; active = well fitted inhibition curve with a large enough effect; inconclusive = small, poorly fitted or top-dose-only effect; inactive = no such curve, though single readings can be large or run the other way;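 also: nearly all actives have a fitted effect of over 60% in size; nearly all hits also lower the signal before the agonist is added; a reference antagonist and vehicle were the controls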
Target sequence (P16066 whole entry, looked up): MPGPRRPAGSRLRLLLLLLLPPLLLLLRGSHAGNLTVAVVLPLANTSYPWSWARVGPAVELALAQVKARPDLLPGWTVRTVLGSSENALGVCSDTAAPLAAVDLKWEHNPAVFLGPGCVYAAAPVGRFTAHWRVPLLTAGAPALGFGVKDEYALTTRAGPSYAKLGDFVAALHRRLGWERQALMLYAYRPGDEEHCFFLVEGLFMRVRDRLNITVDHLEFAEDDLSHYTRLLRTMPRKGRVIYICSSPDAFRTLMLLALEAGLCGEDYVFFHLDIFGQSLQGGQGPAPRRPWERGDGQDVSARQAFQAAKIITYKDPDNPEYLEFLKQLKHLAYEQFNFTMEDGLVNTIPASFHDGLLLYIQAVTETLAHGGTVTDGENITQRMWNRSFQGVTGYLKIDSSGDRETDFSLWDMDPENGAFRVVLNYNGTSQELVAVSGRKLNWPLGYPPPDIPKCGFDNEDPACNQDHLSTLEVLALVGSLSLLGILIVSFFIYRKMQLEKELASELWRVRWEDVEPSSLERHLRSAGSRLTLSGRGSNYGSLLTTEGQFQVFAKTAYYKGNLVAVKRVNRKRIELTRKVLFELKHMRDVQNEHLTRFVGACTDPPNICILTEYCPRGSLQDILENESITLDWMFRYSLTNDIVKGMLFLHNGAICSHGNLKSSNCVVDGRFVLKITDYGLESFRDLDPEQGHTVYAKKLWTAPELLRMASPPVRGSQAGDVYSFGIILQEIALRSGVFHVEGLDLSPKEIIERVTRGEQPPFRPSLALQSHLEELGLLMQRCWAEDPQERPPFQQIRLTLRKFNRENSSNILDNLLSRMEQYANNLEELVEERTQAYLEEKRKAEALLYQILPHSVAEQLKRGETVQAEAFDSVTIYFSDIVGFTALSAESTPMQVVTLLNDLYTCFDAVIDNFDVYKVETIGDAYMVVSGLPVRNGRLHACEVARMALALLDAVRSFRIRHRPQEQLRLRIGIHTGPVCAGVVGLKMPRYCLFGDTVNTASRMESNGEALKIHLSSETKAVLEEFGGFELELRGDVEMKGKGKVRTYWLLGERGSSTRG
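HEK293 cells stably expressing human Npr1 and cGMP GloSensor pGS-40F, loaded 2 h with 2% GloSensor reagent, given compound 30 min at room temperature. Luminescence read before and 20 min after 0.1 nM hNppA.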
Starred values were filed as active, the others as inactive; u = inconclusive; [ ] = another dose, or the depositor's remark. % is scaled to controls: 0 for no effect and ±100 for the full control effect; potency is read from the fitted curve at half-maximal effect. This is a subset, so the mix of outcomes need not match the whole.

SMILES | hNpr1 antagonist
Cn1nc(-c2nncn2CC2CC2)c2c1CCN(C(=O)CCC(=O)N1CC(=O)Nc3ccccc31)C2 | 6.1%
CN1CCC(OC2CCN(S(=O)(=O)c3ccccc3)CC2)CC1 | 2.4%
O=C(NCc1ccc(F)cc1)c1nc(-c2ccsc2)c2ccccn12 | -0.6%
CCCNC(=O)N1CCC[C@H](n2c(=O)n(CCOC)c3cccnc32)C1 | 1.8%
N#Cc1ccc(CN2CC[C@@H]3C(=O)NCCCCCCN(Cc4ccncc4)[C@@H]3C2)cc1 | 0.9%
C=CCNC(=O)N1CC[C@@H](CC(=O)O)[C@@H](CC2=NCCc3ccc(C)cc32)C1 | 1.3%[70.6 µM]
O=C(NCCc1ccccc1)C1CCN(C(=O)c2ncn3c2COC(c2ccccc2)C3)CC1 (configuration not stated) | 0.0%
O=C(NC1CCCCC1)N[C@H]1CCN2C(=O)c3ccccc3NC(=O)[C@H]12 | 0.5%[70.6 µM]
N#Cc1cccc(NC(=O)N2CCC[C@@H](O)[C@H](NC(=O)c3ccc(OCc4ccc(F)cc4)cc3)C2)c1 | -7.6%
COc1cccc(CC(=O)Nc2cccc(-c3nnc4n3CCCC4)c2)c1 | -0.9%
O=C(Nc1ccc(Cl)cc1)N1CCCC(c2nn(-c3ccccc3)c(=O)[nH]2)C1 (configuration not stated) | -19.2%
O=C(CC1=CCCCC1)N1C[C@@H](COCC2CC2)[C@H](c2ccncc2)C1 | -7.8%
CCN(CC)C(=O)[C@@H]1CCC[C@@H](NC(=O)Nc2c(C)noc2C)CN(C)C(=O)C1 | 0.6%[70.6 µM]
Cn1ccc2c(C(=O)NCc3cccnc3)nc(-c3ccc([S+](C)(=O)[O-])cc3)cc21 | 2.3%[70.6 µM]
Cc1nc2c(c(=O)[nH]1)CCN(C(=O)c1cn(CCC3CCCCN3)nn1)CC2 (configuration not stated) | 5.4%
Cc1nc(N2CCC(C(O)c3nccn3C)CC2)c2sccc2n1 (configuration not stated) | 5.5%
CN1Cc2ccc(N3CCOCC3)nc2C(C)(C(=O)NCc2ccccc2)C1 (configuration not stated) | -17.4%[70.6 µM]
CC(=O)Nc1ccc(CN2CCC3(CN[S+](=O)([O-])c4ccccc4N3)C2)cc1 (configuration not stated) | 9.4%
COc1cccc(CN2CCOC3CCN(Cc4ccc(C#N)cc4)CC3C2=O)c1 (configuration not stated) | -19.9%[70.6 µM]
CCNC(=O)C1C(c2cccc(NC(=O)Cc3ccccc3)c2)OC(=O)N1Cc1ccc(C)cc1 (configuration not stated) | -9.2%
O=C(NCc1ccc2c(c1)OCO2)C1CCCN1c1nc2ncccc2o1 (configuration not stated) | -0.3%
CC(=O)N(C1CC1)C1CCOC2(CCN(C(=O)c3n[nH]c4ccccc34)CC2)C1 (configuration not stated) | -1.7%
CCn1ncnc1C1CC(=O)Nc2cc(OC)c(NC(=O)CC(C)C)cc21 (configuration not stated) | 0.7%
CC(C)n1cc(CN2CCCN(S(=O)(=O)c3ccccc3)CCC(=O)NCC2)c2ccccc21 | -0.1%
Cc1ccccc1-c1nc(Cn2ccnc2C(C)C)c(C)o1 | u
(further entries)
SMILES | hNpr1 antagonist
C=C(C)CNc1ccc(C(=O)N(CC)Cc2nccn2C)cn1 | 5.1%
O=C1NCCN2CC3(CCN(C(=O)COc4ccc(F)cc4)CC3)CC12 (configuration not stated) | 0.3%
O=C1NC2(CCN(Cc3ccccc3)CC2)COc2ccccc21 | 15.3%[70.6 µM]
CN(C)[C@@H]1CN(C2CCOCC2)CC[C@@H]1CO | 7.9%
CN1CC2(CCN(C3CCN(CCc4ccccc4)CC3)C2)OC1=O (configuration not stated) | 4.6%
COc1ccc(N2C(=O)[C@@H]3[C@@H](CCN3C(=O)C(C)(C)C)N(Cc3ccccc3)C2=O)cc1 | 9.0%[70.6 µM]
COc1c(F)cccc1CN1CCOc2cc([S+](N)(=O)[O-])ccc2C1 | -23.2%[70.6 µM]
CN(Cc1ccc(F)cc1)c1ccc2ncc(Nc3cccc(N[S+](C)(=O)[O-])c3)n2n1 | u
C[C@@H]1CN(C(=O)C2(N3C[C@@H](C)O[C@@H](C)C3)Cc3ccccc3C2)C[C@H](C)O1 | 3.7%
CCC(C)NC(=O)CN1CN(c2ccccc2)C2(CCN(C(=O)c3ccccc3OC)CC2)C1=O (configuration not stated) | -14.6%
CCO[C@H]1CN(C(=O)CCc2ccc(-c3ccccc3)cc2)C[C@@H]1O | 6.5%
CC(=O)NCCC1CCCN(Cc2oc3ccc(C)cc3c2C)C1 (configuration not stated) | -1.2%
CSCC(=O)N[C@H]1CCN2C(=O)c3cc(-c4ccc(SC)cc4)ccc3NC(=O)[C@H]12 | 5.4%
CCCN(Cc1nccn1C)C(=O)CC1C(=O)NCCN1CC1CCCCC1 (configuration not stated) | 5.5%
CCN1C(=O)CCN(S(=O)(=O)c2ccc3c(c2)CCC3)CC12CCOCC2 | -2.2%
CNC(=O)N1CCc2c(sc3ncnc(NCCCOC)c23)C1 | -8.2%
Cc1cc(C(=O)N2CCC3(CC2)N=C(CC(C)C)NC3=O)n(C)n1 | 14.2%
COc1ccc(N2C(=O)CSC23CCN(C(=O)Nc2ccccc2)CC3)cc1 | 0.7%
O=C(Cc1ccccc1Cl)NC1CCN(c2cc(C(F)(F)F)ncn2)CC1 | 11.2µM*
Cc1ccccc1C(=O)N1CCC2(CCN(Cc3cnc[nH]3)CC2)C(CO)C1 (configuration not stated) | 2.4%
CC(C)CN1C(=O)CO[C@H](c2ccc(NS(=O)(=O)c3cccc(F)c3)cc2)[C@H]1CO | -10.6%
CN(C)c1ccc(CN2CCOC[C@H]2c2nc(C(C)(C)C)co2)cc1 | -24.4%[70.6 µM]
CS(=O)(=O)N1CCOC(Cn2ccnc2-c2ccc(CO)o2)C1 (configuration not stated) | 15.6%
O=C1[C@@H]2C[C@@H](CN2C(=O)C2CC2)Oc2ccccc2N1Cc1ccccn1 | 2.7%[70.6 µM]
COc1ccc(C(=O)N2CCC3(CC2)C(OC)C(=O)N3c2cccc(F)c2)c(OC)c1 (configuration not stated) | 2.1%

Reformatted: entries from further up.
SMILES: Cc1cc(C(=O)N2CCC3(CC2)N=C(CC(C)C)NC3=O)n(C)n1
  hNpr1 antagonist = 14.2%

SMILES: COc1ccc(N2C(=O)CSC23CCN(C(=O)Nc2ccccc2)CC3)cc1
  hNpr1 antagonist = 0.7%

SMILES: O=C(Cc1ccccc1Cl)NC1CCN(c2cc(C(F)(F)F)ncn2)CC1
  hNpr1 antagonist = 11.2µM*

SMILES: Cc1ccccc1C(=O)N1CCC2(CCN(Cc3cnc[nH]3)CC2)C(CO)C1 (configuration not stated)
  hNpr1 antagonist = 2.4%

Next section.
SMILES | hNpr1 antagonist
O=C(c1ccc2[nH]ccc2c1)N1CCC(Cc2nncn2CC2CC2)C1 (configuration not stated) | 6.9%
CCc1noc([C@@H]2CC(F)(F)CN2C(=O)c2ccncc2F)n1 | 7.0%
O=C(CC1CCCCC1)NCc1nnc2c(-c3nc(C4CC4)no3)cccn12 | 1.8%
COc1ccc(-c2noc([C@@H]3CCCN3C(=O)c3cccc(C)c3)n2)cc1OC | 0.6%
O=C(CCc1c[nH]c2ccccc12)NC1CCc2n[nH]c(=O)n2CC1 (configuration not stated) | 0.5%
O=S(=O)(NC[C@H]1Cn2c(-c3ccc(F)cc3)cnc2CO1)c1ccc(Cl)cc1 | u
Cc1noc(-c2ccc(OC3CN(C(=O)NCCc4ccccc4)C3)cc2)n1 | u
CNC(=O)[C@H]1C[C@H](Oc2ccccc2)CN1C(=O)CCc1nc2ccccc2s1 | 3.6%
COc1cccc(CC(=O)N2CCC3(CC2)N(C)C(=O)CS3(=O)=O)c1 | -2.2%
Cc1cc(C2CCCN2C(=O)C2CCN(C(=O)C3CCCC3)CC2)on1 (configuration not stated) | 8.5%
COC(=O)c1cccc(NC(=O)c2ccc3c(c2)N(C)C2CCCCN2C3=O)c1 (configuration not stated) | -2.7%
CN(Cc1cccc(-n2cccn2)c1)Cc1nc(-c2cccs2)no1 | -8.1%
O=C(CN1CCN(c2ncccn2)CC1)NCc1ccc2nonc2c1 | -1.3%
NC(=O)CO[C@@H]1CO[C@H]2[C@@H]1OC[C@@H]2NC(=O)Nc1cccc2ccccc12 | 3.2%[70.6 µM]
O=C(Cc1cccc(F)c1)N1CCC2(CC1)NC(=O)N(c1ccccc1Cl)N2 | 3.7%
O=C(NC1CCN(c2cnn(Cc3ccccc3)c(=O)c2)CC1)C1CCC1 | 0.1%
C#CCN(C)C(=O)C[C@@H]1c2nc(NC(=O)c3ccc(OC)cc3)sc2C[C@@H]2[C@](C)(CO)[C@H](O)CC[C@]21C | -7.7%
COC(=O)[C@@H]1Cc2c([nH]c3ccccc23)[C@H]2C[C@@H](NCCN3CCOCC3)C[C@@H](c3ccc(C(F)(F)F)cc3)N21 | u
Cc1ncc2c(c1CNC(=O)c1ccccc1-c1ncc[nH]1)CCNC2 | -1.9%
Cc1nc(C)c(C(=O)NCC(=O)N2CCCCCNC(=O)CC2c2ccccc2)s1 (configuration not stated) | 8.3%
COCCN1CCCCC(CC(=O)Nc2cccc(OC)c2)C1=O (configuration not stated) | -15.9%
CCS(=O)(=O)N1CCCN(C)c2ccccc21 | -0.6%
O=C([C@@H]1C[C@H](F)CN1C(=O)Cc1ccccc1Cl)N1CCCCC1 | -0.5%
Cc1cc(C)n(CC(=O)NCC2(C)CCOCC2)n1 | 3.6%
CCCS(=O)(=O)N[C@@H]1CN(Cc2cccnc2)C[C@H]1CN(C)C | -0.6%
Carrying on.
SMILES | hNpr1 antagonist
CC[C@H]1CN(C(=O)N2CCOCC2)CC[C@H]1CC(=O)Nc1nccs1 | 3.1%[70.6 µM]
CCC(=O)N1CCC(Oc2ccc(C(=O)N3CCOCC3)cn2)C1 (configuration not stated) | -1.6%
CCOc1ccccc1C(=O)N1CCN(Cc2ccc(=O)n(C)c2)CC1 | -2.0%
CCCOC(=O)N1CCCC(c2nccn2CCCN(C)C)C1 (configuration not stated) | 6.2%
CC(=O)NCC1Cn2cccc2CN1Cc1ccccc1 (configuration not stated) | -9.8%
CCOc1ccccc1C1NC(=O)N(CC(=O)Nc2ccc(F)cc2)C2=C1C(=O)OC2 (configuration not stated) | -11.5%
COCC1CN(S(=O)(=O)Cc2cccc(F)c2)CC12CCNCC2 (configuration not stated) | 3.8%
CC(C)CCN(C)Cc1ccc(F)cc1 | 0.0%[184 µM]
Cc1nnc([C@H]2CCN(Cc3ccc(C#N)cc3)C2)o1 | 2.8%[70.6 µM]
COc1ccccc1CNC(=O)c1noc(-c2ccc(C)cc2)n1 | -0.9%
Cc1cc(C(=O)NC(C)c2nc3ccccc3[nH]2)cc(S(N)(=O)=O)c1C (configuration not stated) | -0.6%
Cc1ccc(N(CC(=O)N[C@H]2C[C@@H]3OCC[C@H]23)S(C)(=O)=O)cc1 | 3.9%
O=C(NCCc1cn[nH]c1)[C@H]1CCC[C@@H](O)C1 | 9.9%
Cc1ncsc1CN1CCCCCNC(=O)CC1c1ccccc1 (configuration not stated) | 0.8%
Cc1ccncc1C(=O)N1CCC(N2C(=O)C(OCC3CC3)C23CCOCC3)CC1 (configuration not stated) | -5.5%
CCCN(CC1CCOC1)S(=O)(=O)c1ccc(C)cc1C (configuration not stated) | 2.0%
Cc1nc(NC2CCCCC2)ncc1C(=O)O | 2.5%
COCCO[C@H]1C(=O)N(C2CCN(C(=O)Nc3ccccc3)CC2)[C@H]1c1ccncc1 | -2.3%
O=C([C@@H]1C[C@H](Oc2ccccc2)CN1C(=O)C1CCCCC1)N1CCOCC1 | 4.8%
COc1ccc(CN2CCNc3cc(Nc4cccnc4)ncc3C2)cc1O | 0.3%[70.6 µM]
Cc1cccc(CN2CCc3nc(N(C)Cc4cccnc4)[nH]c(=O)c3CC2)c1 | 1.8%
N#Cc1cccc(CN2CCCC(CNS(=O)(=O)Cc3ccccc3)C2)c1 (configuration not stated) | -2.6%
OCc1cn(CC2CCN(c3ncnc4nc[nH]c34)CC2)nn1 | 3.1%
Cc1cc(C)n(C)c(=O)c1C(=O)NC1CCCc2nc(-c3ccccc3)ncc21 (configuration not stated) | -2.6%
Nc1ccc(C(=O)N2CCCn3nc(C(=O)Nc4ccccc4)cc3C2)cn1 | -4.9%
Additional structures follow:
SMILES | hNpr1 antagonist
COc1ccc(-n2cc(CN3C[C@@H](C)O[C@@H](C)C3)c(-c3cccc(F)c3)n2)cc1 | -1.1%
O=C(Nc1ccc(N2CCOCC2)cc1)[C@H]1CN(Cc2ccccc2)C[C@H]1C(=O)O | 0.6%
CC(=O)N1CCCN(C(=O)c2c[nH]c3ncccc23)CC1 | 2.4%[70.6 µM]
O=C([C@H]1CCC[C@H](O)C1)N1CCC(n2cnnc2)CC1 | 2.3%
O=C(c1ccc(F)c(F)c1)N1CCC(Oc2ncccc2C(=O)N2CCCCC2)C1 (configuration not stated) | 4.0%
O=c1[nH]c(N2CCc3ccccc3C2)nc2c1CCN(Cc1ccc(F)cc1)CC2 | -15.8%

2 entries from above in another layout:
CC(=O)N1CCCN(C(=O)c2c[nH]c3ncccc23)CC1
  hNpr1 antagonist = 2.4%[70.6 µM]
COc1ccc(N2C(=O)CSC23CCN(C(=O)Nc2ccccc2)CC3)cc1
  hNpr1 antagonist = 0.7%

Screening data from PubChem BioAssay.
